miR-21 reporter – miR-21 reporter, rising signal; HeLa miR-21 FLuc reporter, luciferase, 48 h; Potency, µM (top dose mostly 38.3 µM), for the others: at the highest dose reporter change, positive = more light; 340,000 tested, under 10 active; active = well fitted rising curve with a large enough effect; inconclusive = small, poorly fitted or top-dose-only effect; inactive = no such curve, though single readings can be large or run the other way;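 note: % of control where 0% means no effect; miR-21 action dims this reporter so a rising signal means less miR-21 action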
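Luminescence from a firefly luciferase reporter carrying a miR-21 binding site downstream, stably expressed under a CMV promoter in HeLa cells that make miR-21 endogenously, reports miRNA modulation after 48 h compound exposure up to approximately 40uM final.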
Rango dissoc inh – inhibitors of RanGTP-induced Rango-importin beta complex dissociation; O95149+P62826; Biochemical FRET Rango-importin beta, RanGTP-induced dissociation; Potency, µM (series often up to 46.1 µM), inactives show at the highest dose activity change, negative = inhibition; 0.071% of 340,000 active; active means falling FRET ratio curve, often poorly fitted, with flat reads before Ran was added; inconclusive means other falling curves, or compound fluorescence or quenching; inactive means flat or rising ratio curve;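 note: potency is the fitted concentration of half-maximal effect; % of control where 0% means no effect; nearly all actives have a fitted effect of over 45% in size; -100% = wells without RanGTP and RCC1; the record marks most hits as doubtful in a second field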
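Compounds sat 5 min at room temperature with 0.1 uM Rango biosensor plus 0.25 uM importin beta, then FRET pre-read. RanGTP-RCC1 (0.6 uM Ran, 2mM GTP, 0.2 uM RCC1) added for 45 min, and the CFP/YFP post-read measured blocked complex dissociation.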
Rango complex inh – prevents formation of the Rango-importin beta complex; Q14974; 0.031% of 340,000 active; Rango CFP/YFP FRET sensor + importin beta, 45 min; AID 540263; Potency, µM (highest dose often 92.2 µM), without a hit: top-dose inhibition of complex formation; active = rising FRET ratio curve, often small or poorly fitted; inconclusive = mostly compound fluorescence or quenching in the first reads; inactive = flat curves in all reads;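 note: potency is the fitted concentration of half-maximal effect; 0% = DMSO wells and 100% = buffer wells lacking importin beta; nearly all actives have a fitted effect of over 15% in size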
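FRET biosensor (snurportin 1 IBB flanked by EYFP and cerulean), 50 nM, with compound 5 min, then 0.125 microM importin beta in PBS, 1 mM DTT, 0.02% Tween-20, 0.1% BSA. CFP/YFP ratio read after 45 min at room temperature; pre-read flags interference.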
GLA inh pH 4.5 – inhibitors of human alpha-galactosidase A at pH 4.5; purified enzyme, 4-MU-alpha-Gal fluorescence, pH 4.5; 230,000 tested, under 10 active; activity change, negative = inhibition, % at 105 µM; inconclusive = small, poorly fitted or top-dose-only inhibition, or a rising curve; inactive = flat fitted curve, though single readings scatter; no compound was filed as active;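 note: 0% = full activity with enzyme and -100% = basal without enzyme; dose as in the result columns while the protocol names 77 µM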
Target sequence (P06280 whole entry, looked up): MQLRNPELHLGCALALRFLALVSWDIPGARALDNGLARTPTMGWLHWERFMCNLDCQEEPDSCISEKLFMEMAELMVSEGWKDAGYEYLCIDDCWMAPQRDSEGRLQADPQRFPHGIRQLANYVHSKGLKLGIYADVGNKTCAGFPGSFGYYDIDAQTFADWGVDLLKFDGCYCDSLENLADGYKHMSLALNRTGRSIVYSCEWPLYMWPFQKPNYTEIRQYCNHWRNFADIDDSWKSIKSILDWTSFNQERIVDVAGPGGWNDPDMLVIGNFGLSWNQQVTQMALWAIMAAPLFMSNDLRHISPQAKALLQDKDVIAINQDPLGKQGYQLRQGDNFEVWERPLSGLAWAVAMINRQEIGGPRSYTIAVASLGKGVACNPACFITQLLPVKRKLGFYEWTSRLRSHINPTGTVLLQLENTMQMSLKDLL
* = called active by the depositor; ? = inconclusive; · = not tested or not shown; & = joins results of further samples. Some of the compounds tested; count on the stated rates, not on these rows.

SMILES	miR-21 reporter	Rango dissoc inh	Rango complex inh	GLA inh pH 4.5
Cc1c(C(=O)N2CCOCC2)cc(C(C)(C)C)n1-c1ccccc1	-1%	2%	0.7%	1
CCOC(=O)N1CCC(N(CCN(C)C)C(=S)Nc2cccc(OC)c2)CC1	1%	16%	1.4%	2
CCCC(=O)Nc1ccc2c(c1)nc1n2CCSC1	-27%	-11%	?	7
O=C(NCCCN1CCOCC1)C(=O)NCCc1ccccc1	0%	-6%	4.8%	4
CC(C)c1ccc(C(=O)NNC(=O)c2ccncc2)cc1	-10%	-4%	-3.0%	·
CCOC(=O)C1=C(c2ccccc2)O/C(=C(/C(=O)OC)C(F)(F)F)S1	2%	-12%	5.4%	2
COc1ccc(C2CC(c3ccc(Cl)cc3Cl)n3nc(N)nc3N2)cc1 (stereo not given)	-1%	-28%	?	-8
CCOC(=O)N1CCN(Cc2ccc3c(c2)OCO3)CC1	-6%	11%	3.1%	·
Cc1ccc(NS(=O)(=O)c2csc(C(N)=O)c2)c(C)c1	1%	4%	2.1%	·
Cc1sc(NC(=O)c2ccco2)c(CN2CCC(C)CC2)c1C	-13%	19%	-1.8%	-8
COc1ccc(/C=N/NC(=O)CN(c2ccc(OC)cc2)S(=O)(=O)c2ccccc2)cc1	-4%	-27%	0.9%	-15
Cc1cc(C)c(NC(=O)CCN2C(=O)c3ccccc3S2(=O)=O)c(C)c1	·	-4%	-1.4%	·
CC(C)c1nc2ccc(C(=O)O)cc2[nH]1	-22%	-13%	6.1%	-7
CC(C)NC(=O)C1CCN(C(=O)c2ccc(-c3ccccc3)cc2)CC1	-23%	-7%	-1.2%	10
O=C(NCCCN=C1NS(=O)(=O)c2ccccc21)c1ccc(S(=O)(=O)N2CCOCC2)cc1	-1%	-8%	0.1%	0
Cc1cccc(OCc2nnc(SCC(=O)NC3CCCCC3)n2C)c1	1%	7%	-0.1%	·
Cc1nn(-c2ccccc2)c(C)c1NC(=O)COC(=O)CCCOc1ccccc1	·	-4%	2.5%	·
O=C(Nc1ccccc1N1CCCC1)C1CCN(C(=O)c2ccc(Cl)cc2)CC1	·	-6%	-1.1%	·
C=CCn1c(Cc2ccc(OCC)cc2)nnc1SCC(N)=O	2%	-6%	-6.1%	-6
Cc1ccc(C(=O)NCCc2ccccn2)cc1S(=O)(=O)N1CCOCC1	-16%	37%	-1.8%	0
Cc1ccc(S(=O)(=O)N2CCN(C(=O)c3c(C)nn(-c4ccccc4)c3Cl)CC2)cc1	2%	1%	1.2%	-6
CCOc1ccc(NC(=O)CCC(=O)NNC(=O)c2ccc(Br)o2)cc1	2%	18%	-0.9%	·
COc1ccc(-c2cnc3ncnn3c2N)cc1	4%	-14%	0.3%	-10
CCOC(=O)c1cccc(NC(=O)c2c(NCc3ccccc3)[nH]c(=O)[nH]c2=O)c1	·	2%	-1.5%	·
CC(C(=O)O)n1c(C(F)(F)F)nc2ccccc21 (stereo not given)	0%	19%	0.1%	-3
CCCc1nc2ccccc2c2nc(N)nn12	-9%	3%	-4.6%	9
COc1ccc(C(=O)/C=C/C(=O)N(CC(=O)NC2CCCCC2)Cc2ccccc2)c(O)c1	4%	-13%	1.3%	0
COc1cc(Nc2cc(C)nc3nc(C)nn23)cc(OC)c1OC	-1%	-8%	0.6%	-10
CN(C)c1ccc(C=C2C(=O)OC(C)(C)OC2=O)cc1	-2%	-6%	2.2%	-1
CCCOC(=O)c1ccc(NC(=O)Oc2ccccc2)cc1	-33%	6%	2.3%	0
CN(C)CCN1C(=O)c2cccc3cc([N+](=O)[O-])cc(c23)C1=O	·	?	?	·
COc1ccc(C2CC(c3ccccc3)=NN2C(=O)COC(=O)c2nc3nccc(C)n3n2)cc1 (stereo not given)	-18%	4%	-4.8%	-5
Cc1ccc(C(=O)NCCc2sc(C)nc2C)cc1	-7%	34%	-1.1%	7
O=C(COC(=O)c1n[nH]c(=O)c2ccccc12)Nc1ccccc1	·	16%	-1.5%	·
CCOC(=O)CNC(=O)CN1CCC(c2nc3ccccc3[nH]2)CC1	2%	-2%	0.5%	·
O=C(c1ccccc1F)N1CCN(c2ccc([N+](=O)[O-])c3cccnc23)CC1	-21%	-7%	-2.2%	-6
O=C(NCc1cccnc1)/C(=C/c1ccc(-c2cccc(C(F)(F)F)c2)o1)NC(=O)c1ccccc1	13%	-1%	-1.5%	-10
COc1cccc(CN2C(=O)C(C)N(C(=O)c3ccccc3)c3ccccc32)c1 (stereo not given)	22%	-8%	1.4%	·
COc1ccc(S(=O)(=O)N2CCCCCC2)cc1NC(=O)CN1C(=O)CNC1=O	·	-1%	-4.3%	·
CCCCc1c(O)cc(C)[nH]c1=O	-3%	-2%	-0.2%	-4
CCOC(=O)COn1c(=O)c(-c2ccc(OCC)cc2)[n+]([O-])c2ccccc21	-44%	7%	1.7%	·
COc1ccc(-c2ccc3oc(-c4ccc(OC)cc4)c(C#CC4(O)CCCCC4)c3c2)cc1	·	-7%	-0.8%	·
CCOC(=O)c1ccc(CNC(=O)C2CCC(=O)N(Cc3cccc(OC)c3)C2)o1 (stereo not given)	-4%	-1%	-0.9%	·
CCSc1nc(-c2cccnc2)ccc1C#N	-17%	-1%	4.9%	4
CC(C)n1nnnc1SCC(=O)Nc1ccccc1N1CCOCC1	-9%	-10%	6.2%	8
Cn1c(SCC(=O)c2ccc3c(c2)OCO3)nnc1-c1ccccn1	-24%	7%	-2.1%	9
CC(=O)Nc1ccc(C(=O)N/N=C/c2cccnc2)cc1	-11%	-7%	?	0
CCOc1nnc(C)c2c(C)n(-c3cccc(Cl)c3)nc12	-4%	-7%	?	-1
Cc1ccc2c(c1)NC(=O)C(CC(=O)NCCN(C)C)O2 (stereo not given)	-3%	-13%	0.7%	1
COC(=O)C1CSC(C(=O)OC)N1C(=O)Nc1ccc(Cl)c(Cl)c1 (stereo not given)	-8%	-2%	-1.1%	1
CC(C)(C)c1ccc(S(=O)(=O)N2CCCCC2C(=O)NCc2ccccn2)cc1 (stereo not given)	5%	11%	3.3%	-6
CCOC(=O)c1oc2ccc(S(=O)(=O)n3nc(-c4cc(OC)c(OC)c(OC)c4)cc3N)cc2c1C	0%&3%	10%	-0.2%	?
Cc1noc(C)c1S(=O)(=O)Nc1ccc2c(c1)C(=O)N([C@H](C)CO)C[C@H](C)[C@@H](CN(C)C(=O)NC1CCCCC1)O2	·	?	-0.2%	·
COc1ccc(/C=N/Nc2nc(-c3ccc(Cl)cc3)cc(C(F)(F)F)n2)c(OC)c1	3%	0%	-4.0%	2
COc1cc(/C=N\NC(=O)CN2CCOCC2)ccc1OCC(=O)Nc1ccc(C)c(C)c1	-15%	6%	2.3%	-3
Nc1cc(C(F)(F)F)ccc1C(=O)O	-6%	·	·	-15
O=C(CN(C(=O)c1nsc(Cl)c1Cl)c1cccc(F)c1)NC1CCCC1	6%	4%	1.5%	·
O=C(COC(=O)c1ccc([N+](=O)[O-])cc1)NC1CCCC1	-1%	2%	-0.2%	·
CC(C)(C)c1ccc(-c2ncccc2O)cc1	-43%	5%	4.4%	-1
O=C(Nc1cccc2ncccc12)c1cccnc1	-11%	-4%	-2.5%	2
Next section
SMILES	miR-21 reporter	Rango dissoc inh	Rango complex inh	GLA inh pH 4.5
COc1ccc(-n2cnnc2SCC(=O)Nc2cc(C)on2)cc1	-3%	?	-2.4%	-13
O=C(c1ccco1)N1CCN(Cc2c(Cl)cccc2Cl)CC1	-49%	27%	-0.6%	·
O=S1(=O)CC(O)C(Nc2ccc(Cl)cc2)C1 (stereo not given)	-2%	1%	2.5%	-4
Nc1nc(SCC(=O)N2CCCC2)[nH]c(=O)c1NC(=O)c1cccs1	1%	0%	4.7%	0
C=CCn1c(=N)n(CC(=O)c2cccc([N+](=O)[O-])c2)c2ccccc21	-20%	1%	0.1%	8
CN(CCOc1ccc(Cl)cc1)CC(=O)Nc1ccc(OC(F)(F)F)cc1	2%	-6%	0.2%	·
Cc1cc(Cl)c(OCCCn2cncn2)c(Br)c1	-22%	?	-0.4%	2
O=C1c2ccccc2-c2c1cccc2C(=O)N1CCN(C(=O)c2ccco2)CC1	-7%	5%	1.7%	-5
Cc1cccc(N=Nc2cn[nH]c2-c2ccco2)c1	-47%	13%	3.3%	-7
COc1ccc(CNC(=S)Nc2cccc(F)c2)cc1	3%	4%	0.9%	·
O=S(=O)(Nc1ccc(Cl)c(C(F)(F)F)c1)c1cnc[nH]1	-6%	6%	-4.2%	-10
O=C(Nc1cccc(C(F)(F)F)c1)c1cc[n+]([O-])cc1	1%	-9%	-2.7%	·
O=C(O)c1cccc([N+](=O)[O-])c1C(=O)Nc1ccc2ccccc2c1	-30%	-10%	-1.1%	·
CCOC(=O)CN1C(=O)N[C@@H](c2ccco2)C(C(C)=O)=C1C	·	-4%	-0.6%	2
CC(C)c1ccc(/C=N/Nc2ccc(C(=O)O)cc2)cc1	5%	-16%	-4.9%	-1

6 entries from above, as a markdown table:
| molecule | miR-21 reporter | Rango dissoc inh | Rango complex inh | GLA inh pH 4.5 |
| --- | --- | --- | --- | --- |
| CC(C)(C)c1ccc(S(=O)(=O)N2CCCCC2C(=O)NCc2ccccn2)cc1 (stereo not given) | 5% | 11% | 3.3% | -6 |
| C=CCn1c(=N)n(CC(=O)c2cccc([N+](=O)[O-])c2)c2ccccc21 | -20% | 1% | 0.1% | 8 |
| CN(C)c1ccc(C=C2C(=O)OC(C)(C)OC2=O)cc1 | -2% | -6% | 2.2% | -1 |
| CCCOC(=O)c1ccc(NC(=O)Oc2ccccc2)cc1 | -33% | 6% | 2.3% | 0 |
| O=C(NCCCN1CCOCC1)C(=O)NCCc1ccccc1 | 0% | -6% | 4.8% | 4 |
| O=C(COC(=O)c1n[nH]c(=O)c2ccccc12)Nc1ccccc1 | · | 16% | -1.5% | · |

(further entries)
SMILES	miR-21 reporter	Rango dissoc inh	Rango complex inh	GLA inh pH 4.5
C/C=C\C(=O)Nc1cccc(C2=NOC3(C2)C[C@@H](C(N)=O)N(C(=O)C2(C)CC2)C3)c1 (stereo not given in full)	2%	-3%	-0.1%	6
Cc1cc(C)c(S(=O)(=O)N/N=C/c2ccc3c(c2)OCO3)c(C)c1	0%	-5%	0.1%	·
O=C(CCc1nc2ccccc2[nH]1)NC1CCCCC1	0%	?	6.0%	2
C=CCOC(=O)C1=C[C@H](c2cn(C(C)=O)c3ccccc23)C[C@H](OCc2ccc(CO)cc2)O1	7%	-19%	-3.5%	-2
CCOC(=O)c1sc(Nc2nc3cc4c(cc3s2)OCO4)cc1C	-37%	?	?	-5
CN1CCN(S(=O)(=O)c2ccc(NC(=S)NC(=O)c3ccccc3)cc2)CC1	-25%	-2%	-1.1%	3
Cc1csc2ncc(C(=O)NCc3ccccn3)c(=O)n12	-6%	-6%	-0.7%	14
N#Cc1ccc(COC(=O)c2ccc3c(c2)OCO3)cc1	·	-10%	-0.5%	·
COc1cc(NC(=O)COC(C)=O)cc(OC)c1OC	-2%	-9%	-0.4%	5
Cc1[nH]nc(N2CCCCC2)c1[N+](=O)[O-]	-4%	25%	-2.6%	8
O=C(CCC(=O)Nc1ccc(Cl)cc1)N/N=C/c1ccc2c(c1)OCO2	28%	7%	0.1%	·
O=C(CNC(=O)C1CCCCC1)OCn1nnc2ccccc2c1=O	-7%	-15%	-4.3%	0
Cc1cnc(C(=O)OCC(=O)Nc2ccc3c(c2)OCCO3)cn1	·	11%	1.5%	·
Cc1ccc2nsnc2c1NC(=O)CCc1ccccc1	-4%	13%	6.4%	3
CC(=O)NC(C1C(=O)CC(C)(C)CC1=O)(C(F)(F)F)C(F)(F)F	0%	0%	-3.1%	-6
O=C1N(Cc2cccc(Cl)c2)C[C@@H]2C[C@@H](c3ccsc3)N3CCC[C@@]123	0%	-3%	?	-2
CCCn1nc(NC(=O)c2cccs2)c2cc3cc(OC)ccc3nc21	1%	?	?	-15
C/C(CC(=O)NC1CCCCC1)=N\NC(=O)c1ccccc1C	-14%	-9%	0.0%	·
CCOc1ccccc1N1CC(C(=O)N2CCN(Cc3ccc(C#N)cc3)CC2)CC1=O (stereo not given)	·	5%	5.7%	·
Cc1ccc(S(=O)(=O)N2CCN(C(=O)CCOc3ccccc3C)CC2)cc1C	·	-1%	-2.3%	·
O=C(c1ccccc1F)N(NC(=O)C(O)(c1ccccc1)c1ccccc1)c1ccccc1	14%	-13%	0.0%	-4
